# FGF22 binding: binders of human FGF22 protein, primary screen, FGF22 synaptogenesis inhibitor project, biophysical, thermal shift, single point. Fibroblast growth factor 22 (Homo sapiens), Q9HCT0. recombinant FGF22 thermal shift, SYPRO orange fluorescence; percent of sucrose octasulfate shift, DMSO zero. calls only at 9.99 µM. 1.5% of 340,000 active. AID 651658, 2012;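 active = melting point raised past a set limit in the mean and every replicate; three in four hits are not shown here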
# Target sequence (Q9HCT0 whole entry, looked up): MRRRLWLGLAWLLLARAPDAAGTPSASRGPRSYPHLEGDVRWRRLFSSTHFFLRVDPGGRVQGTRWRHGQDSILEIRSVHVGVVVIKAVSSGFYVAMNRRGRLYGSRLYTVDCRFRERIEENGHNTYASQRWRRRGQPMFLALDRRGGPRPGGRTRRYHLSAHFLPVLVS
# Calls only; i = inactive. These rows are one share of the data; count on the stated rates, not on these rows.
CO[C@@H]1CN(C)C(=O)c2ccc(NC(C)=O)cc2OC[C@@H](C)N(S(C)(=O)=O)C[C@H]1C
  FGF22 binding: i
N#C[C@H]1N[C@@H](CO)[C@H]1c1ccccc1
  FGF22 binding: i
Cc1ccc(S(=O)(=O)Nc2ccc3c(c2)CC(=O)N([C@@H](C)CO)C[C@@H](C)[C@H](CN(C)C)O3)cc1
  FGF22 binding: i
COc1ccc(S(=O)(=O)Nc2ccc3c(c2)C(=O)N([C@H](C)CO)C[C@@H](C)[C@H](CN(C)C(=O)Nc2c(C)noc2C)OCCCC[C@@H](C)O3)cc1
  FGF22 binding: i
C[C@@H]1CN([C@H](C)CO)C(=O)c2cc(NS(=O)(=O)c3ccccc3)ccc2O[C@@H]1CN(C)Cc1ccc(C(F)(F)F)cc1
  FGF22 binding: i
COCCNC(=O)C[C@H]1C[C@H]2c3cc(NC(=O)Nc4ccccc4)ccc3O[C@H]2[C@H](CO)O1
  FGF22 binding: i
CCNC(=O)[C@@H]1[C@@H](CO)[C@@H]2Cn3c(ccc(-c4ccc(F)cc4)c3=O)[C@H]1N2C
  FGF22 binding: i
COc1ccc(NC(=O)N(C)C[C@@H]2Oc3ccc(NC(=O)Cc4ccccc4)cc3CC(=O)N([C@H](C)CO)C[C@H]2C)cc1
  FGF22 binding: i
Cc1noc(C)c1NC(=O)N(C)C[C@@H]1Oc2c(NC(=O)CCCCCC(=O)Nc3ccccc3N)cccc2C(=O)N([C@H](C)CO)C[C@@H]1C
  FGF22 binding: i
CO[C@@H]1CN(C)C(=O)c2cc(NC(C)=O)ccc2OC[C@H](C)NC[C@H]1C
  FGF22 binding: i

C[C@H](CO)N1C[C@H](C)[C@@H](CN(C)S(=O)(=O)c2ccc(F)cc2)Oc2ccc(N(C)C)cc2CC1=O
  FGF22 binding: i
COc1ccc(C#Cc2ccc([C@@H]3[C@H]4CN(C(=O)c5ccncc5)CCCCN4[C@H]3CO)cc2)cc1
  FGF22 binding: i
COc1ccc2c(c1)[C@@]1(OCCC=C[C@H]1C)C(=O)N2C/C=C(\C)CCC=C(C)C
  FGF22 binding: i
C[C@H]1CN([C@@H](C)CO)S(=O)(=O)c2ccc(C#Cc3cccnc3)cc2O[C@H]1CN(C)C
  FGF22 binding: i
C[C@@H]1CN([C@H](C)CO)C(=O)c2cc(NC(=O)CCN3CCOCC3)ccc2O[C@@H]1CN(C)C(=O)Nc1ccc(C(F)(F)F)cc1
  FGF22 binding: i
COc1ccc(S(=O)(=O)N(C)C[C@@H]2Oc3ccc(NS(=O)(=O)c4c(C)noc4C)cc3C(=O)N([C@H](C)CO)C[C@H]2C)cc1
  FGF22 binding: i
Cc1ccc(S(=O)(=O)N2C[C@H](O)COC[C@@H]3O[C@H](CC(=O)NCC4CCCCC4)CC[C@H]32)cc1
  FGF22 binding: i
NC(=O)NCC#Cc1ccc2c(c1)[C@]1(C(=O)N2)[C@H](c2ccc(OCCO)cc2)N2[C@H](c3ccccc3)[C@H](c3ccccc3)OC(=O)[C@H]2[C@@H]1C(=O)O
  FGF22 binding: i
O=C(CCN1CCCCC1)N[C@H]1C=C[C@H](CC(=O)N2CCC(Cc3ccccc3)CC2)O[C@H]1CO
  FGF22 binding: i
CCCNC(=O)N(C)C[C@H]1Oc2ncc(C#Cc3ccccc3F)cc2C(=O)N([C@@H](C)CO)C[C@H]1C
  FGF22 binding: i

C[C@H]1CN([C@@H](C)CO)C(=O)Cc2cc(NC(=O)Nc3ccc4c(c3)OCO4)ccc2O[C@@H]1CN(C)S(=O)(=O)c1cccs1
  FGF22 binding: i
COc1ccc(NC(=O)N(C)C[C@@H]2OCCCC[C@H](C)Oc3ccc(NC(=O)Nc4c(C)noc4C)cc3C(=O)N([C@@H](C)CO)C[C@@H]2C)cc1
  FGF22 binding: i
Cc1noc(C)c1NC(=O)Nc1ccc2c(c1)CC(=O)N([C@@H](C)CO)C[C@H](C)[C@@H](CN(C)CC1CC1)O2
  FGF22 binding: i
O=C([C@H]1[C@H](CO)[C@H]2Cn3c(cccc3=O)[C@@H]1N2C(=O)c1ccc(F)cc1)N1CCCCC1
  FGF22 binding: i
COc1cccc(-c2ccc(CC[C@H]3O[C@H]4CC[C@H](CO)O[C@H]4C[C@@H]3NS(C)(=O)=O)cc2)c1
  FGF22 binding: i
C[C@H](CO)N1C[C@H](C)[C@@H](CN(C)Cc2ccc(-c3ccccc3)cc2)Oc2ccc(NC(=O)CCN3CCOCC3)cc2C1=O
  FGF22 binding: i
CS(=O)(=O)Nc1ccc2c(c1)[C@@H]1C[C@@H](CC(=O)NCc3ccc(Oc4ccccc4)cc3)O[C@H](CO)[C@@H]1O2
  FGF22 binding: i
C[C@@H]1CCCCO[C@H](CN(C)S(C)(=O)=O)[C@@H](C)CN([C@@H](C)CO)C(=O)c2cc(NC(=O)Nc3ccc(C(F)(F)F)cc3)ccc2O1
  FGF22 binding: i
C[C@H]1CN([C@@H](C)CO)C(=O)c2c(c3ccccc3n2C)-c2ccccc2CO[C@@H]1CN(C)C(=O)Nc1ccc2c(c1)OCO2
  FGF22 binding: i
CCCc1cn(CC[C@H]2CC[C@@H](NC(=O)Nc3ccccc3F)[C@H](CO)O2)nn1
  FGF22 binding: i

C[C@@H]1CN([C@@H](C)CO)C(=O)c2cccc(NC(=O)Nc3ccc(C(F)(F)F)cc3)c2O[C@H]1CN(C)Cc1ccncc1
  FGF22 binding: i
C[C@H]1CN([C@@H](C)CO)C(=O)c2cccc(NS(=O)(=O)c3ccccc3)c2O[C@H]1CN(C)S(=O)(=O)c1ccc(F)cc1
  FGF22 binding: i
N#C[C@H]1[C@H](c2ccc(-c3ccccc3F)cc2)[C@@H](CO)N1C(=O)c1ccccn1
  FGF22 binding: i
C[C@H]1CN([C@@H](C)CO)C(=O)c2cccc(NC(=O)NC3CCCCC3)c2O[C@H]1CN(C)S(=O)(=O)c1ccc(Cl)cc1
  FGF22 binding: i
C[C@@H]1CN([C@H](C)CO)C(=O)c2cccc(NC(=O)c3ccc(-c4nccs4)cc3)c2O[C@@H]1CN(C)Cc1ccc(Cl)c(Cl)c1
  FGF22 binding: i
O=C(Nc1ccccc1F)N1CCCCN2[C@H](C1)[C@@H](c1ccc(-c3cccnc3)cc1)[C@@H]2CO
  FGF22 binding: i
CO[C@H]1CN(C)C(=O)c2cc(NS(=O)(=O)c3ccccc3Cl)ccc2OC[C@@H](C)NC[C@H]1C
  FGF22 binding: i
CCCC#Cc1cnc2c(c1)C(=O)N([C@H](C)CO)C[C@H](C)[C@H](CN(C)C(=O)c1ccc3c(c1)OCO3)O2
  FGF22 binding: i
O=C(O)C[C@H]1CC[C@H](NC(=O)c2ccncc2)[C@@H](CO)O1
  FGF22 binding: i
CN(C)C(=O)[C@H]1[C@H](CO)[C@H]2Cn3c(ccc(C4=CCCC4)c3=O)[C@@H]1N2CC1CCCCC1
  FGF22 binding: i

C[C@H]1CN([C@@H](C)CO)C(=O)c2cccc(NS(=O)(=O)c3cccs3)c2O[C@@H]1CN(C)S(=O)(=O)c1ccc(Cl)cc1
  FGF22 binding: i
COc1ccc(S(=O)(=O)Nc2ccc3c(c2)C(=O)N([C@@H](C)CO)C[C@H](C)[C@H](CN(C)S(=O)(=O)c2c(C)noc2C)O3)cc1
  FGF22 binding: i
C[C@@H]1CCCCO[C@@H](CN(C)C(=O)c2ccccc2)[C@@H](C)CN([C@H](C)CO)C(=O)c2cc(NC(=O)Nc3ccccc3)ccc2O1
  FGF22 binding: i
COc1ccc(S(=O)(=O)Nc2ccc3c(c2)C(=O)N([C@@H](C)CO)C[C@H](C)[C@@H](CN(C)C(=O)CCCN(C)C)OCCCC[C@H](C)O3)cc1
  FGF22 binding: i
C[C@@H]1CCCCO[C@@H](CN(C)Cc2ccc(C(=O)O)cc2)[C@@H](C)CN([C@@H](C)CO)C(=O)c2cc(NS(C)(=O)=O)ccc2O1
  FGF22 binding: i
CNC[C@@H]1OCCCC[C@@H](C)Oc2ccc(NC(=O)NC(C)C)cc2C(=O)N([C@H](C)CO)C[C@H]1C
  FGF22 binding: i
C[C@H]1CN([C@@H](C)CO)C(=O)Cc2cc(NC(=O)Nc3cccc4ccccc34)ccc2O[C@@H]1CN(C)S(=O)(=O)c1cn(C)cn1
  FGF22 binding: i
COc1ccc(NC(=O)Nc2ccc3c(c2)CC(=O)N([C@@H](C)CO)C[C@@H](C)[C@@H](CN(C)S(=O)(=O)c2ccc(OC)cc2)O3)cc1
  FGF22 binding: i
COc1ccc(-c2cnc3c(c2)C(=O)N([C@@H](C)CO)C[C@H](C)[C@H](CN(C)C(=O)CN(C)C)O3)cc1
  FGF22 binding: i
C[C@@H]1CCCCO[C@@H](CN(C)C(=O)Nc2ccc(C(F)(F)F)cc2)[C@H](C)CN([C@H](C)CO)C(=O)c2cc(NC(=O)c3ccccc3)ccc2O1
  FGF22 binding: i

Cc1noc(C)c1NC(=O)N(C)C[C@@H]1Oc2ccc(NC(=O)Cc3ccccc3)cc2CC(=O)N([C@H](C)CO)C[C@H]1C
  FGF22 binding: i
CO[C@H](CN(C)C(=O)c1ccc2c(c1)OCO2)[C@@H](C)CN([C@H](C)CO)S(=O)(=O)c1ccc(Cl)cc1
  FGF22 binding: i
O=C(C[C@@H]1CC[C@@H](NS(=O)(=O)c2ccccc2)[C@H](CO)O1)N1CCc2ccccc2C1
  FGF22 binding: i
O=C(NS(=O)(=O)c1ccccc1[N+](=O)[O-])[C@H]1O[C@@H](n2ccc(=O)[nH]c2=O)[C@H](O)[C@@H]1O
  FGF22 binding: i
O=C(C[C@H]1CC[C@H](NC(=O)NC2CCCCC2)[C@@H](CO)O1)NCc1ccc(Cl)cc1
  FGF22 binding: i
C[C@H](CO)N1C[C@H](C)[C@H](CN(C)S(=O)(=O)c2cn(C)cn2)Oc2ccc(NC(=O)C3CC3)cc2C1=O
  FGF22 binding: i
C[C@@H]1CN([C@@H](C)CO)C(=O)c2cc(NC(=O)Cn3cnnn3)ccc2O[C@H]1CN(C)S(=O)(=O)c1ccccc1
  FGF22 binding: i
C[C@@H]1CN([C@@H](C)CO)C(=O)c2cc(-c3ccccc3F)cnc2O[C@H]1CN(C)C(=O)C1CC1
  FGF22 binding: i
CCNC(=O)C[C@H]1CC[C@H]2[C@@H](COC[C@H](O)CN2C(=O)C2CCOCC2)O1
  FGF22 binding: i
CC(=O)N1CCCCN2[C@@H](CO)[C@H](c3ccc(-c4ccncc4)cc3)[C@@H]2C1
  FGF22 binding: i

# Overlap with the part before: 3 entries, then new ones.
C[C@@H]1CN([C@@H](C)CO)C(=O)c2cc(-c3ccccc3F)cnc2O[C@H]1CN(C)C(=O)C1CC1
  FGF22 binding: i
CCNC(=O)C[C@H]1CC[C@H]2[C@@H](COC[C@H](O)CN2C(=O)C2CCOCC2)O1
  FGF22 binding: i
CC(=O)N1CCCCN2[C@@H](CO)[C@H](c3ccc(-c4ccncc4)cc3)[C@@H]2C1
  FGF22 binding: i
CC=Cc1ccc2n(c1=O)C[C@@H]1[C@@H](CO)[C@H](C(=O)Nc3nccs3)N(Cc3ccccc3F)[C@H]21 (mixture of isomers)
  FGF22 binding: i
CCCNC(=O)N(C)C[C@H]1Oc2ncc(-c3ccccc3F)cc2C(=O)N([C@H](C)CO)C[C@H]1C
  FGF22 binding: i
CC(=O)N(C)C[C@@H]1Oc2ncc(C#CCc3ccccc3)cc2C(=O)N([C@@H](C)CO)C[C@@H]1C
  FGF22 binding: i
COc1ccc(S(=O)(=O)N[C@H]2CC[C@@H](CC(=O)NCCc3ccccc3)O[C@@H]2CO)cc1
  FGF22 binding: i
C[C@@H]1CN([C@@H](C)CO)C(=O)c2cc(C#CC3CCCC3)cnc2O[C@@H]1CN(C)C(=O)Nc1ccccc1
  FGF22 binding: i
CCCNC(=O)N(C)C[C@@H]1Oc2ncc(Br)cc2C(=O)N([C@@H](C)CO)C[C@H]1C
  FGF22 binding: i
C[C@H]1CN([C@@H](C)CO)C(=O)c2cc(-c3ccc(F)cc3)cnc2O[C@H]1CN(C)Cc1ccc(C(=O)O)cc1
  FGF22 binding: i
CO[C@H]1CN(C)C(=O)c2cc(NC(=O)c3cc(C)on3)ccc2OC[C@H](C)N(CC2CC2)C[C@H]1C
  FGF22 binding: i
C[C@@H]1CN([C@@H](C)CO)C(=O)Cc2cc(NS(=O)(=O)c3cccs3)ccc2O[C@H]1CN(C)S(=O)(=O)c1ccccc1
  FGF22 binding: i
COc1ccc2c3c(n(C)c2c1)[C@@H](CO)N(CC1CC1)CC31CN(C(C)=O)C1
  FGF22 binding: i

COCCNC(=O)C[C@H]1CC[C@@H](NS(=O)(=O)c2ccc(C)cc2)[C@@H](CO)O1
  FGF22 binding: i
CCNC(=O)C[C@H]1CC[C@@H]2[C@@H](COc3ccc(NC(=O)Nc4ccccc4OC)cc3C(=O)N2C)O1
  FGF22 binding: i
CCC(=O)N1CC2(C1)[C@H](c1ccccc1)[C@H](CO)N2C(=O)c1ccccc1
  FGF22 binding: i
C[C@@H]1CCCCO[C@@H](CN(C)S(=O)(=O)c2ccc(Cl)cc2)[C@H](C)CN([C@H](C)CO)C(=O)c2cc(NS(=O)(=O)c3cccs3)ccc2O1
  FGF22 binding: i
C[C@@H]1CN([C@@H](C)CO)S(=O)(=O)c2ccc(-c3cccnc3)cc2O[C@@H]1CN(C)Cc1ccccn1
  FGF22 binding: i
C[C@H]1CN([C@@H](C)CO)C(=O)c2cc(NS(=O)(=O)c3ccccc3)ccc2O[C@@H]1CN(C)C(=O)Nc1ccccc1
  FGF22 binding: i
C=CCN1C(=O)[C@]2(O[C@H](CCn3cc([C@H](O)c4ccccc4)nn3)[C@@H]([Si](C)(C)c3ccc(OC)cc3)[C@@H]2C)c2cc(N3CCOC3=O)ccc21
  FGF22 binding: i
Cn1cnc(S(=O)(=O)N[C@H]2CC[C@H](CC(=O)Nc3ccc(-c4ccccc4)cc3)O[C@H]2CO)c1
  FGF22 binding: i
C[C@H]1CN([C@@H](C)CO)C(=O)c2cccc(NC(=O)Nc3cccc4ccccc34)c2O[C@H]1CN(C)S(=O)(=O)c1ccccc1
  FGF22 binding: i
C[C@@H]1CCCCO[C@H](CN(C)Cc2ccncc2)[C@H](C)CN([C@@H](C)CO)C(=O)c2cc(NC(=O)Nc3ccc4c(c3)OCO4)ccc2O1
  FGF22 binding: i
C[C@@H]1CN([C@H](C)CO)S(=O)(=O)c2ccc(C3=CCCCC3)cc2O[C@@H]1CN(C)C(=O)C1CC1
  FGF22 binding: i

# Bioassay records from PubChem BioAssay.
